Compound activity: PubChem BioAssay, several laboratories
B2AR ag – human beta-2 adrenergic receptor agonism by FAP; Am2.2-beta2AR cells, FAP receptor internalization, flow cytometry; reference of the scale not given here; response, % (test concentration not listed); hit rate 0.43% among 340,000; P07550; AID 504454;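 active = response above a set limit, near 3 SD of response in nonfluorescent compounds, cut at about 42% in these data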;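 note: stock transfer was 100 nL into about 11 µL; a reference agonist was the positive control; negative values mostly stem from fluorescent compounds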
Target sequence (P07550 whole entry, looked up): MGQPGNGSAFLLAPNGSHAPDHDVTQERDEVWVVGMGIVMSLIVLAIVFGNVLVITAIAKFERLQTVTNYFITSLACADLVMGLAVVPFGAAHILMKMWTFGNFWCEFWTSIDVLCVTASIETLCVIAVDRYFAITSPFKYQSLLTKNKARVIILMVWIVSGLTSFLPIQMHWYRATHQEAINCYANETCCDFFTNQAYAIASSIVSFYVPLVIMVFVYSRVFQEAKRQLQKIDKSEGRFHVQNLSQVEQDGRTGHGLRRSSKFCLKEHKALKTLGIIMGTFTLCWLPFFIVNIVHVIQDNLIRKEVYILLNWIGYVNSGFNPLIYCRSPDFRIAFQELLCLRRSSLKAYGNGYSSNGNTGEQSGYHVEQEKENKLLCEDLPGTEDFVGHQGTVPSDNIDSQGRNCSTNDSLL
HNF4A DNA FP – change in binding of human HNF4 alpha to DNA. P41235. HNF4a-FITC DNA binding, fluorescence polarization, 1 h. activity change, % at 10 µM. hit rate 0.3% among 360,000; in the data active = activity change above about 30%, passing the limit was not always enough;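 note: controls were the assay level and a saturating level of protein; the project sought stronger binding though the title names inhibitors; some compounds called inactive have numbers as strong as hits; positive values seem to mean higher polarization but the record does not say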
A1 inh – inhibitors of the anti-apoptotic protein A1, read as caspase activation. MEF A1-2A-BIM cells, Caspase-Glo 3/7 luminescence, 3 h; percent of clofoctol response, vehicle zero. caspase activation, % (no concentration beside the values). hit rate 0.066% among 330,000;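 active = over half of replicate activation scores above 10%, or exactly half above 10 with the replicate mean above 10; inconclusive = replicate mean below 10 yet half the replicates above 10; inactive = over half of replicates below 10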;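 note: wells of about 30 µL received 50 nL stock; many hits fall short of the cut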
LANA-H2A inh – blocks KSHV LANA binding to histone H2A/H2B. AID 2629. hit rate 0.6% among 320,000. Q9QR71. cell-free LANA-H2A/H2B peptide, fluorescence polarization. inhibition, % (test concentration not listed); in the data active = inhibition mostly above about 10%, no sharp cut-off; inactive = mostly below about 6.7%;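 note: stock transfer was 7.5 nL into about 10 µL; 0% = median of vehicle wells and 100% = median of positive control wells; one replicate is shown; the record names a cut of 25% in any replicate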
Vif A3G – HIV-1 Vif–A3G interaction blockers – biochemical, TR-FRET, GST-Vif 1-94, biotin-A3G peptide, dose response retest, primary screen (AID 1117319); inhibition, %, or IC50 in µM where a hit was titrated; TR-FRET GST-Vif / biotin-A3G peptide binding; higher % means a stronger effect; test concentration not given here; strong numbers were not always called active; hit rate 0.57% among 260,000;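 active = above the screen mean plus three standard deviations and confirmed in dose response; inconclusive = results disagree or hit not tested in dose response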;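 note: Vif residues 1-94 fused to GST binding biotinylated APOBEC3G peptide 110-148; 0% = full assay without inhibitor and 100% = GST in place of GST-Vif; retest series ran down from 100 µM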
UCH37 inh – inhibitors of human deubiquitinating enzyme UCH37; Q9Y5K5; purified proteasome/UCH37, Ub-AMC cleavage fluorescence; inhibition, % (no concentration beside the values); hit rate 0.33% among 330,000; AID 588478;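 active = mean of two replicates above 20%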;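 note: 0% = compound-free wells with enzyme and 100% = wells lacking proteasome; stock transfer was 100 nL into about 20 µL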
Target sequence (Q9Y5K5 whole entry, looked up): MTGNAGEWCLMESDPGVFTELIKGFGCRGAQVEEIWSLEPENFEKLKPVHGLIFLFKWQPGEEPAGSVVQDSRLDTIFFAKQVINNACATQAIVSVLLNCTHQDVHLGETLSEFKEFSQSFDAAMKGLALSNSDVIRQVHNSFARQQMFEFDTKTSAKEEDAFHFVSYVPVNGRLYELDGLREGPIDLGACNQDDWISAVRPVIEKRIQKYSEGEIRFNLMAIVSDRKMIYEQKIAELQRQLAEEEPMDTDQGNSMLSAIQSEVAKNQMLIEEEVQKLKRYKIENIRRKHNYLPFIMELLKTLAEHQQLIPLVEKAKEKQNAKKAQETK
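Assay system: Proteasome-bound UCH37. Buffer or medium: pH 7.4 Tris-HCl (50 mM) with ovalbumin, ATP-MgCl2, DTT. Incubation: 30 min preincubation with enzyme, 25 min cleavage at room temperature. Measured by: fluorescence, ex 355 nm, em 460 nm. Read-out basis: percent inhibition. Control set: wells without proteasome as full block, compound-free enzyme plus substrate as uninhibited.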
E coli growth – blocks Escherichia coli growth; OD600, 23 h; hits give low values; AID 1053175; hit rate 0.21% among 330,000; OD600 absorbance (test concentration not listed);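 active = OD600 absorbance below the run mean of sample wells minus 3.6 SD, in any replicate, cut at about 0.56 in these data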;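 note: stock transfer was 300 nL into about 60 µL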
Numbers without * were called inactive; u = inconclusive; x = not tested or not shown; & = joins results of further samples.

SMILES	B2AR ag	HNF4A DNA FP	A1 inh	LANA-H2A inh	Vif A3G	UCH37 inh	E coli growth
CCc1cccc(CC)c1-n1c(SCC(=O)c2c(N)n(C)c(=O)n(C)c2=O)nnc1-c1cccnc1	-3	-9.7	0.3	-0.3	-22%	0.4	0.69
O=C(NCC12CC3CC(CC(C3)C1)C2)c1nc2ncccn2n1	-21	-4.5	2.2	-4.1	0%	-3.5	0.67
O=C(COc1cc2oc(=O)cc(-c3ccccc3)c2cc1Cl)NC(Cc1c[nH]c2ccc(O)cc12)C(=O)O (stereo unspecified)	-4	-1.5	-0.8	-2.1	x	3.4	0.76
CCCC(=O)Nc1nc(C)c(-c2csc(Nc3ccc(Cl)cc3)n2)s1	22	5.1	2.1	-3.9	24%	2.2	0.69
CC1Cc2nc(SCC(=O)N3CCCC3)n(C)c(=O)c2S1 (stereo unspecified)	2	-2.6	1.4	0.3	9%	10	0.69
CCOc1cc(/C=N\NC(=O)CN2CCOCC2)ccc1OCc1ccc(F)cc1	-14	-1.1	0.5	-0.2	4%	x	x
CCSC(=Nc1ccccc1)C1=C(O)COC1=O	-5	1.6	-1.3	1.6	0%	-0.8	0.76
COc1ccccc1NC(=O)N1CCN(C)CC1	-1	0.8	-0.6	4.3	x	4.7	0.67
COC(=O)C1=C(C(=O)OC)SC2(S1)C(C(=O)OC)=C(C(=O)OC)SC1=C2c2cc(C)cc(C)c2NC1(C)C	13	3.3	-0.2	4.4	28%	10.0	0.77
COc1cccc(CNC(=O)CCC2CCCN(c3cc(C)nc(N)n3)C2)c1 (stereo unspecified)	-3	2.5	-0.1	-1.4	15%	5.5	0.7
COc1ccc(COCC(O)CN2CC(C)OC(C)C2)cc1OC (stereo unspecified)	2	5.3	0.3	2.6	u	4.7	0.71
c1cncc(Cc2cc3ccccc3[nH]2)c1	-8	1.0	0.2	2.3	22%	4.5	0.67
C=CC(=O)Nc1cccc(CN2C(=O)N(c3cc(OC)cc(OC)c3)Cc3cnc(NCCCCN(CC)CC)nc32)c1	13	17	x	x	x	0.6	x
O=c1[nH]c(CN2CCCCC2)nc2ccccc12	6	3.2	-0.3	0.7	-6%	-5.6	0.73
O=C(O)CCc1ccc(-c2ccc(Cl)cc2)n1NC(=O)c1ccc(O)cc1	-2	0.0	-0.4	-3.5	u	5.1	0.68
CCCCCCSc1nc(O)c(C2OC(=O)c3c2ccc(OC)c3OC)c(=O)n1-c1ccccc1 (stereo unspecified)	9	0.4	-1.1	4.4	17%	1.0	0.71
Cc1ccc(CN2CCN(Cc3ccc(-n4cccn4)cc3C)CC2CCO)cc1 (stereo unspecified)	4	-0.2	-0.5	0.1	14%	-0.3	0.72
CCOC(=O)Cc1csc(NC(=O)Cc2ccc(Cl)cc2)n1	6	3.5	0.2	-3.6	7%	1.2	0.66
CCOc1cccc(-c2c(C(=O)N/N=C(\C)c3ccncc3)nnn2-c2nonc2N)c1	1	2.4	0.6	1.3	x	x	x
CC[C@H]1C/C=C\Cc2ccccc2[C@@H](C(=O)C[C@@H](O)CC(C)=O)OC1=O	5	6.5	1.5	4.7	-9%	-0.2	0.66
Cn1cccc1C(=S)N=P(C1CCCCC1)(N1CCOCC1)N1CCOCC1	-6	2.2	0.7	2.6	22%	8.0	0.67
Cc1cc(S(=O)(=O)n2[nH]c(=O)c(CCO)c2C)c(Cl)cc1Cl	-14	1.3	1.0	5.4	x	4.3	0.68
Cc1ccc2cc(CN(Cc3nnnn3Cc3ccco3)CC3CCCO3)c(=O)[nH]c2c1C (stereo unspecified)	-9	1.5	0.3	1.3	34µM*	-1.9	0.69
CCCCOC(=O)NC(NCC(O)c1ccccc1)(C(F)(F)F)C(F)(F)F (stereo unspecified)	-5	1.8	0.6	-0.1	-1%	2.5	0.7
CC1(C)OC(=O)N(CC(=O)Nc2cccc(C(F)(F)F)c2)C1(C)O (stereo unspecified)	4	3.5	0.2	1.9	-13%	2.2	0.64
CNC(=O)c1ccc2snnc2c1	-8	5.0	1.2	-6.7	0%	5.5	0.77
CCOc1ccc(CN2CCN(Cc3cccc4nonc34)CC2CCO)cc1 (stereo unspecified)	-64	2.0	0.5	2.4	2%	1.0	0.68
Oc1ccc2ccccc2c1C=Nc1ccc(Cl)cn1	5	0.5	0.6	3.0	x	9.2	0.72
CCc1cccc(C)c1NC(=O)COC(=O)c1ccc2c(c1)S(=O)(=O)c1ccccc1C2=O	-1	1.9	1.1	3.0	x	1.3	0.67
COc1ccccc1NC(=O)c1ccc(NC(=O)COC(=O)C2CCCCC2)cc1	-5	3.8	-0.1	-2.7	x	1.0	0.68

Some of these compounds in order of the Vif A3G value, lowest first.
| molecule | Vif A3G |
| --- | --- |
| CCCCOC(=O)NC(NCC(O)c1ccccc1)(C(F)(F)F)C(F)(F)F (stereo unspecified) | -1% |
| CNC(=O)c1ccc2snnc2c1 | 0% |
| Cc1ccc(CN2CCN(Cc3ccc(-n4cccn4)cc3C)CC2CCO)cc1 (stereo unspecified) | 14% |

New compounds follow.
SMILES	B2AR ag	HNF4A DNA FP	A1 inh	LANA-H2A inh	Vif A3G	UCH37 inh	E coli growth
Cc1cnc(NC(=O)c2ccc3c(c2)C(=O)N(Cc2ccco2)C3=O)s1	1	-1.8	1.6	0.8	4%	4.6	0.67
O=C1CCN(CCc2ccccc2)CCN1CCO	4	-1.1	-0.7	5.9	x	-4.7	0.76
Cc1ccc(NC(=O)C2CC(=O)N(c3ccccc3Cl)C2)cc1S(=O)(=O)N1CCOCC1 (stereo unspecified)	7	1.5	x	x	x	2.1	0.69
Cc1cccc(NC(=S)N/C(=N/S(=O)(=O)c2ccccc2)c2ccccc2)c1	-3&6	4.2&1.9	1.0	2.8	-8%&3%	5.1	0.72
O=C(COc1ccc(Br)cc1)OCc1nnc(-c2ccccc2)o1	3	-2.3	-0.9	5.3	1%	2.8	0.67
COCCN(C(=O)CCC(=O)Nc1nccs1)C(C(=O)NCCC(C)C)c1ccc(F)cc1 (stereo unspecified)	9	-2.8	-0.5	9.7	-1%	0.1	0.65
COc1ccc(CNC(=O)C2CC(c3cccc([N+](=O)[O-])c3)=NO2)cc1 (stereo unspecified)	-7	0.5	-1.9	-1.5	1%	4.6	0.67
Cn1c(=O)c2c(nc(SCCCO)n2Cc2ccccc2Cl)n(C)c1=O	4	-3.8	-0.5	-2.3	0%	1.8	0.63
Cc1ccc(C(O)(CCN2CCCCC2)c2ccccc2)cc1 (stereo unspecified)	1	-1.6	3.3	1.0	-7%	0.1	0.67
O=C(CCN1C(=O)S/C(=C/c2ccccc2)C1=O)Nc1ccc(O)c(C(=O)O)c1	-18	-7.8	1.8	-4.6	x	-19	0.66
O=c1c(Cc2ccc(F)cc2)c(O)ccn1Cc1ccco1	3	2.4	-0.3	-0.5	-4%	1.1	0.66
O=C1c2ccccc2C(=O)N1CCOc1ccccc1Cl	-13	2.2	-3.0	5.9	1%	2.3	0.7
O=C(NCCCN1CCOCC1)C(=O)N/N=C/c1c2ccccc2cc2ccccc12	-10	-17	-0.2	1.7	2%	x	x
CC1(C)CC(=O)C(Sc2ccc(Br)cc2)=C(O)C1	4	1.2	-0.6	2.4	-2%	0.2	0.68
Cc1ccc(S(=O)(=O)N2CCC(C(=O)N[C@@H](C)C(=O)Nc3ccc4c(c3)OCO4)CC2)cc1	9	4.9	-1.7	9.2	5%	2.1	0.62
O=C(O)CCCC(=O)Nc1ccccc1SCCS(=O)(=O)c1ccc(Cl)cc1	5	-1.3	1.5	4.8	-8%	1.1	0.65
COC(=O)C1N[C@@H]([C@@H](NC(=O)COc2ccccc2)C(=O)NCc2ccc(OC)cc2)SC1(C)C (stereo partly specified)	1	-0.5	2.0	-3.6	x	0.3	x
Cc1cc(C)c(NC(=S)NCCO)c(C)c1	2	-1.9	0.1	1.4	14%	3.9	0.69
O=C(Cn1cc([N+](=O)[O-])cn1)Nc1ccn(Cc2c(F)c(F)c(F)c(F)c2F)n1	-2	3.8	-0.1	0.0	-4%	2.5	0.71
COc1ccc(C(C(=O)NC2CCCCC2)N(C(=O)c2ccccn2)c2cccnc2)c(OC)c1 (stereo unspecified)	9	1.7	0.6	9.5	x	3.0	0.7
COc1ccc(C2NC(=S)N3C(c4ccc(OC)cc4)NC(=S)N23)cc1 (stereo unspecified)	0	2.8	-1.8	-0.1	3%	6.9	0.74
CC(=O)c1ccc(NC(=O)Nc2cccc(Cl)c2)cc1	4	1.7	0.5	0.6	1%	0.6	0.51*
O=C(C(Cc1ccccc1)n1cccc1)N1CCc2ccccc21 (stereo unspecified)	4	14	0.3	1.6	0%	2.6	0.82
COc1cc(C2c3c(oc4cc(C)c(C)cc4c3=O)C(=O)N2c2cc(C)ccn2)ccc1O (stereo unspecified)	-5	-0.2	-0.5	1.0	1%	3.6	0.74
COc1ccc(Cc2n[nH]c(=S)n2NC(=O)Nc2ccc(Cl)c(Cl)c2)cc1	6	-0.1	0.1	-5.0	16%	3.3	0.56
CCC(=O)Nc1ccc2nc(SCC(=O)N3CCCC3)sc2c1	1	3.8	0.6	-1.6	3%	-0.2	0.73
Cc1cc(C)c(C#N)c(N2CCN(S(=O)(=O)Cc3ccccc3)CC2)n1	-16	-0.2	0.2	2.8	x	-12	0.66
COc1ccc(-n2nc(C(=O)NCC(=O)NCC3COc4ccccc4O3)c3ccccc3c2=O)c(OC)c1 (stereo unspecified)	7	4.1	-0.6	1.1	-2%	-0.3	0.72
COc1ccccc1NS(=O)(=O)c1ccc(C)c(C(=O)NCC(c2cccs2)N2CCOCC2)c1 (stereo unspecified)	2	-1.0	x	x	x	2.2	0.71
CCc1ccc(C(CC(=O)c2ccc(Cl)cc2)C(=O)O)cc1 (stereo unspecified)	0	-2.7	-0.3	-2.1	-2%	1.8	0.67
COc1ccc(C(=O)/C=C/NCc2ccc(F)cc2)cc1OC	-2	0.6	0.3	5.4	8%	4.7	0.71
c1ccc(Cc2nnc3sc(Nc4ccccc4)nn23)cc1	-4	-1.0	-0.1	-1.4	7%	5.4	0.75
COc1ccc(C(=O)NCCn2cc(SCC(=O)Nc3nnc(C)s3)c3ccccc32)cc1	-11	0.4	-0.4	-1.1	-1%&5%	1.8	0.74
CC(=O)N1CCC2(CC1)CC(=O)c1cc(OCC(=O)N3CCCC3)ccc1O2	-7	-1.6	0.1	-0.3	-4%	x	x
COc1ccc(CC(=O)N/N=C(/C)CC(=O)N(C)c2ccccc2)cc1	6	0.7	0.0	-4.5	x	x	x
CCn1cc(C(=O)N[C@H](C)c2ccccc2)c(=O)c2cc(F)c(N3CCN(C)CC3)cc21	x	2.1	0.3	1.6	7%	-37	0.72
CCCCCN=C(C)c1c(O)c2ccccc2oc1=O	-11	-1.0	0.0	-2.4	25%	5.2	0.71
Cc1cc(C)cc(NC(=O)CCc2nc3sc4c(c3c(=O)[nH]2)CCCC4)c1	-5	7.8	-1.4	-4.6	-25%	1.1	0.68
Cc1cc(Cl)ccc1OCC(=O)OCC(=O)Nc1ccc(F)c([N+](=O)[O-])c1	-2	-1.2	0.3	6.3	17%	-0.6	0.72
CCOC(=O)Cn1c(-c2cccnc2Cl)nc2cc(C)c(C)cc21	-5	0.6	1.8	-4.2	-1%	1.4	0.73
Cc1ccc(Nc2nc3ccccc3n3cnnc23)cc1C	-20	1.4	-1.8	-4.2	-3%	-69	0.7
O=C1c2cc(O)cc(O)c2C(=O)c2c1cc(O)c([C@@H](CO)CCO)c2O	-3	19	-1.7	-1.7	x	9.8	0.78
